gsp agonist = activates gsp, the McCune-Albright syndrome mutation. AID 624287. 340,000 tested, 0.13% active. gsp mutant cells, cAMP HTRF, 30 min; control for the full effect not named in the record. Potency, µM (top dose mostly 76.9 µM), for the others: at the top dose activation (cAMP increase), actives largely listed as activators; active = well fitted activation curve with a large enough effect; inconclusive = small, poorly fitted or top-dose-only effect, or another doubt; inactive = no such curve, though single readings can be large or run the other way; cell line not stated here;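 also: phosphodiesterase inhibitor Ro 20-1724 added with compounds to block cAMP breakdown; potency is read from the fitted curve at half-maximal effect; nearly all actives have a fitted effect of over 60% in size; about a fifth of the inactives were tested at one dose only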
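Cells stably selected in G418 were plated at 2000/well, grown 16-24 hr, then given compounds in DMSO with the PDE inhibitor […] (300 uM solution added) for 30 min at 37C; cAMP was read by HTRF.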
ClpP mod = qHTS Assay for Activators of ClpP; purified B. subtilis ClpP, FRET peptide cleavage, 20 min; Potency, µM (highest dose often 57.5 µM), for the others: at the top dose activity change, negative = active; 340,000 tested, 1.9% active; active = well fitted falling curve with a large enough effect; inconclusive = small, poorly fitted or top-dose-only effect; inactive = no such curve, though single readings can be large or run the other way; also: potency is read from the fitted curve at half-maximal effect; the source files actives as falling curves though it sought activators and does not explain the sign; nearly all actives have a fitted effect of over 65% in size; many hits overshoot -100%
Target sequence (P80244 whole entry, looked up): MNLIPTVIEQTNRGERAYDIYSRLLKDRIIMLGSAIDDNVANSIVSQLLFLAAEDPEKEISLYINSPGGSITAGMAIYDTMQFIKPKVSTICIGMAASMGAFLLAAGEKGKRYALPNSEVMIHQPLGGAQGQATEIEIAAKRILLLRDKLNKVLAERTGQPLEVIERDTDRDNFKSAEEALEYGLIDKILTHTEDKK
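Purified B. subtilis ClpP, 10 microg/mL final in Tris/HCl pH8 with KCl, BSA, glycerol and Tween-20, cleaved an Abz/nitrotyrosine-quenched decapeptide. Fluorescence (ex 320, em 430) was read at 0 and 20 min at room temperature. Delta was normalized to 5.8 microM ADEP and DMSO/no-enzyme controls.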
TRPML1 blocker = blocks the human TRPML1 channel. 390,000 tested, 0.02% active. activity change, negative = inhibition, % (no concentration beside the values). TRPML1-inducible cells, Ca2+ dye fluorescence, FDSS; hits give low values; inhibition of EC80 agonist-evoked calcium signal; in the data active means activity change below about -50%; inconclusive means about -30% to -50%; inactive means above about -30%;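 also: stimulus is agonist 54-4 at its EC80 concentration; % is scaled to controls: 0 for no effect and ±100 for the full control effect; compound concentration not given in the record; the text of the record puts the active cut at -80%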
Target sequence (Q9GZU1 whole entry, looked up): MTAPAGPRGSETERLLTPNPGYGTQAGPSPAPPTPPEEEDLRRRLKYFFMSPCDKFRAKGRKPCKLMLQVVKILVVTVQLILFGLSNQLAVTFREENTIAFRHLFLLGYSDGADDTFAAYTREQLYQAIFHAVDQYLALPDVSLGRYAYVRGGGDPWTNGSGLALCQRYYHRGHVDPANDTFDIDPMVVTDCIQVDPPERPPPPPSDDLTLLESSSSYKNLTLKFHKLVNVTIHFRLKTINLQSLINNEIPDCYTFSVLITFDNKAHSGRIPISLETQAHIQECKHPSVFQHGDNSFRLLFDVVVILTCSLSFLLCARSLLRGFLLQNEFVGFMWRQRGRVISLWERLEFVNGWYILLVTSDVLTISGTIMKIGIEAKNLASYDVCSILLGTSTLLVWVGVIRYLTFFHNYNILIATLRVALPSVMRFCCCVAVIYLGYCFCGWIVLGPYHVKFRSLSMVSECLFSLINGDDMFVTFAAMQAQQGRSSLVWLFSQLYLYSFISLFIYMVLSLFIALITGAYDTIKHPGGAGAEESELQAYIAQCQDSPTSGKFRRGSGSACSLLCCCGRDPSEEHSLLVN
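TRPML1-DL cells, Tet-induced overnight (~16 h, 37 °C) at 1,500 cells/well, were loaded with Ca8 no-wash dye plus quencher for 45-90 min at room temperature. Compounds were pinned during FDSS kinetic reading; agonist 54-4 at EC80 (4 uM final) then added.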
gsp antag = antagonists of gsp mutant (McCune-Albright syndrome); 340,000 tested, 0.4% active; AID 624288; Potency, µM (series often up to 76.9 µM), for the others: at the highest dose activity change, negative = inhibition, actives largely listed as inhibitors; gsp-mutant cells, cAMP HTRF, 30 min; control for the full effect not named in the record; active = falling curve of any shape with a large fitted effect; inconclusive = falling curve, mostly with a smaller effect; inactive = flat or rising curve; cell line not stated here;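 also: intracellular cAMP measured with PDE inhibitor Ro 20-1724 present during compound exposure; potency is read from the fitted curve at half-maximal effect; % is scaled to controls: 0 for no effect and ±100 for the full control effect; nearly all actives have a fitted effect of over 65% in size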
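Cells in G418 medium, seeded 16-24 h, 37C; buffer exchange to DPBS + 1 mM CaCl2, 0.5 mM MgCl2, 0.05% BSA; cpds in DMSO + […] (300 uM stock), 30 min 37C; HTRF cAMP detection.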
Menin-MLL FL inh = menin-MLL binding inhibition, fluorescein peptide; Fluorescence polarization, fluorescein-MLL peptide displacement from menin; FP activity change, % at 61.4 µM; 290,000 tested, under 10 active; AID 1766; inconclusive = falling polarisation curve, or a change in total fluorescence; inactive = total fluorescence flat and polarisation flat or rising; no compound was filed as active; the % refers to the polarisation; negative = inhibition;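 also: % of control where 0% means no effect; inhibitors lower the polarisation; unlabelled MLL peptide was the positive control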
TRPML1 agonist = human mucolipin-1 channel agonism | Q9GZU1 | TRPML1-expressing cells, Ca2+ dye fluorescence, FDSS; host cell line not named in the record; reference of the full effect not given here | activation, % (no concentration beside the values) | 410,000 tested, 0.12% active | AID 624414; in the data active = activation above about 50%; inconclusive = about 30% to 50%; inactive = below about 30%; also: 0% is about no effect; the text of the record puts the active cut at 80%
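Tet-induced TRPML1-DL cells, 1,500 per well, cultured overnight, were loaded with a no-wash Ca2+ dye for 45–90 min. Calcium fluorescence was recorded on the FDSS for 110 s after compound addition, before the EC80 agonist (4 uM 54-4) was added.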
* = called active by the depositor; ? = inconclusive; / = not tested or not shown; & = joins results of further samples; [ ] = remark or other dose.

SMILES	gsp agonist	ClpP mod	TRPML1 blocker	gsp antag	Menin-MLL FL inh	TRPML1 agonist
N#Cc1ccc(C(=O)N2CCC3CC2c2cc(-c4ccccc4)ccc23)cc1 (configuration not stated)	/	0.1%	-3	-3%	/	-0.8
O=C(c1cccs1)N(Cc1ccco1)c1nc(-c2ccc(F)cc2)cs1	-8%	-13%	7	-14%	2.0	4.2
O=C(CCS(=O)(=O)c1ccc(Br)s1)Nc1cc(C(F)(F)F)cc(C(F)(F)F)c1	/	1.5%	15	/	/	2.3
O=C(CSc1nc2ccccc2c(=O)n1CCC(=O)N1CCN(c2ccccc2)CC1)NCC1CCCO1 (configuration not stated)	-1%[15.4 µM]	0.2%	-2	-10%	6.1	0.6
CCOC(=O)C1=C(NC(=O)c2ccc(Br)o2)Nc2ccccc2N=C1	2%	-0.3%	-2	-18%	2.4	2.1
Cc1cccc(-c2nc(CCNC(=O)c3ccccc3Br)cs2)c1	/	3.5%	25	/	/	7.1
Cc1c(NC(=O)C(C)OC(=O)c2ccc([N+](=O)[O-])cc2Cl)c(=O)n(-c2ccccc2)n1C (configuration not stated)	?	5.1%	42	0%	/	0.9
Cc1csc(C(=O)O)c1NC(=O)c1ccc(F)cc1	5%	-0.8%	7	9%	0.6	3.4
Cc1ccc(NC(=O)c2ccc(CSc3nnc(-c4ccncc4)n3C)cc2)cc1	0%	-0.4%	0	3%	2.1	-0.7
Cc1cccc(C(=O)Nc2cccc(C(=O)OCc3cc(=O)n4c5c(sc4n3)CCCC5)c2)c1	/	-0.2%	-13	/	/	2.5
CCC1=Nc2cc(C(=O)NCc3ccco3)ccc2Sc2ccc(C)cc21	-5%	2.1%	-1	-1%	7.5	1.7
Cc1ccc2oc(=O)c3cnn(CC(=O)N4CCN(c5ccccn5)CC4)c3c2c1	?	4.3%	-4	-13%	1.1	0.1
CCc1nc(Cl)c(C#N)c2c1CSC(C)(C)C2	7%	-0.7%	3	-4%	2.2	1.0
CCCCNC(=O)NNC(=O)c1ccco1	7%	-2.0%	-17	-2%	3.3	-0.3
O=[N+]([O-])c1cc([N+](=O)[O-])c2cc3ccccc3nc2c1	9%[15.4 µM]	/	10	0%	1.8	2.4
N#CC(CCc1ccc([N+](=O)[O-])cc1)(CCc1ccc([N+](=O)[O-])cc1)C(N)=O	?	/	-17	-5%	/	4.3
Cc1ccc2c(=O)cc(C(=O)Nc3sc4c(c3C(=O)NCc3ccco3)CCC4)oc2c1C	/	0.7%	7	/	/	2.7
NC(=O)c1coc(-c2ccccc2)n1	2%	0.2%	20	10%	0.6	0.1
COc1ccc(CCNC(=O)CN2CCC(C(N)=O)CC2)cc1	2%	-2.8%	-12	1%	4.2	0.2
O=C(NC(=S)N1CCN(c2ccccn2)CC1)c1ccco1	1%	-2.4%	5	0%	0.0	0.4
COc1ccc(N2CC(=O)N(c3ccccc3)C2=S)cc1	25%	-0.4%	-29	6%	-0.5	-0.8
O=C(CSc1ncccn1)NCc1ccc(Cl)cc1	47%	2.8%	9	12%	-0.8	1.6
CCOCCc1nnc(NC(=O)c2cc(OC)c(OC)c(OC)c2)s1	?	-4.3%	-23	-9%	-2.1	0.0
CCC(Oc1ccccc1)C(=O)Nc1ccc(S(=O)(=O)Nc2ncccn2)cc1 (configuration not stated)	7%[15.4 µM]	3.4%	2	-26%	-3.2	-0.8
COC(=O)C1(Cc2cc(-c3ccc(OC)cc3OC)no2)CCN(C(=O)OC(C)(C)C)CC1	-7%	-0.3%	30	-15%	0.0	4.1

(continued)
SMILES	gsp agonist	ClpP mod	TRPML1 blocker	gsp antag	Menin-MLL FL inh	TRPML1 agonist
CC1=C(C(N)=O)C(c2cccc(C)c2)n2nc(-c3ccc(Cl)cc3)nc2N1 (configuration not stated)	/	-7.3%	2	/	/	0.7
COc1ccc(-c2ccc(=O)n(CC(=O)Nc3ccc(OC)c(OC)c3)n2)cc1	/	0.8%	-4	/	/	0.6
COC(=O)CSc1nc2c(cnn2-c2ccc(F)cc2)c(=O)[nH]1	-20%	0.7%&-0.8%	-2&-21	4%	-3.0	1.0&-0.2
Cc1ccc(Cn2cc(S(=O)(=O)c3cccc(Cl)c3)c(=O)c3cc(F)c(N4CCOCC4)cc32)cc1	/	1.5%	-1	/	/	0.3
Cc1ccc(C(=O)/C=C/N(C)C)o1	16%	/	3	5%	14	-0.8
Cc1cccc(CC2CC(=O)N(c3nc4ccccc4s3)C2=O)c1 (configuration not stated)	-42%[inhibitor]	0.0%	4	-3%	0.2	0.8
O=C(NC1CCN(C(=S)NCc2ccco2)CC1)C12CC3CC(CC(C3)C1)C2	-52%[inhibitor]	0.9%	-11	-12%	4.9	-0.1
Cc1ccc(-c2cc(C)nc3ncnn23)cc1	11%	4.7%	-16	1%	0.7	0.5
Cc1ccc(NC(=O)C2C3CC4OC(=O)C2C4C3)cc1Cl (configuration not stated)	-27%	3.1%	2	10%	1.0	-1.1
CCC(=O)c1ccc(N2CCCC2)c(F)c1	1%	-0.6%	10	-4%	0.1	0.0
Cc1ccc2c(c1)c1c3n2CCN(CCC#N)C3CCC1 (configuration not stated)	-3%	-7.5%	-16	/	/	-0.1
CCOc1ccccc1N(CC(=O)N1CCC(C)CC1)S(=O)(=O)c1ccc(C)cc1	2%	1.1%	16	-33%	/	1.0
Cc1ccc(CN2CCC(CO)(CC3CCCCO3)CC2)o1 (configuration not stated)	0%[15.4 µM]	/	6	/	1.8	-0.7
CCOc1ccccc1NC(=O)CSc1nnc(Cn2c(=O)sc3ccccc32)n1C	-5%	-0.4%	-2	-6%	1.1	0.9
COc1ccc(NC2=NCCC2)cc1	-36%[inhibitor]	-1.6%	-3	6%	1.5	0.4
O=C(c1ccccc1)N1CCN(S(=O)(=O)c2cccc(NS(=O)(=O)c3ccccc3)c2)CC1	7%[15.4 µM]	/	12	-18%	0.7	-0.8
c1ccc(-c2csc(Nc3nc(N4CCOCC4)nc(N4CCOCC4)n3)n2)cc1	-13%	-0.7%	-15	-7%[15.4 µM]	4.1	1.4
O=C1C2C3C=CC(C3)C2C(=O)N1c1n[nH]c(CCc2ccccc2)n1 (configuration not stated)	8%	-1.9%	-19	10%	-2.9	0.6
O=C1C=CC(=O)N1c1ccc(Nc2ccccc2)cc1	?	/	3	-4%	/	1.0
CCC(C)NC(=O)c1cc(-c2ccccc2O)on1 (configuration not stated)	-51%[inhibitor]	-1.3%	25	7%	1.3	1.8
CN(CCC#N)C(=O)CSc1nc2scc(-c3ccccc3)c2c(=O)[nH]1	-8%	0.6%	-8	-15%	4.8	-0.1
O=C(CCC(=O)c1cccs1)OCc1nnc(-c2ccccc2)o1	0%	0.5%	-9	-5%	-0.1	2.6
CCOC(=O)c1c(NC(=O)c2cccs2)sc(C(=O)N(C)C)c1C	-11%	-8.0%	11	-1%	7.6	0.7
COc1ccc(NC(=O)CNS(=O)(=O)c2ccccc2)cc1Cl	-20%	0.0%	3	-6%	0.8	1.7
COc1ccccc1/C=N/OC(=O)c1ccc(F)cc1	18%[15.4 µM]	1.6%	4	0%	-0.4	0.0

Next structures
SMILES	gsp agonist	ClpP mod	TRPML1 blocker	gsp antag	Menin-MLL FL inh	TRPML1 agonist
Cc1cccc(-c2noc(CN(C(=O)CCc3ccccc3)C(C)C)n2)c1	-1%	-2.4%	4	-21%	-1.9	0.2
CC(=O)NCC1CCCN(c2nc3nonc3nc2N(C)Cc2ccccc2)C1 (configuration not stated)	?	/	-1	3%	-0.8	-0.5
CCN(CC(=O)NC(C)(C)C)C(=O)COc1c(Cl)cc(Cl)c2ccc(C)nc12	?	4.0%	-7	-3%	5.1	-0.4
CC(=O)Oc1cccc(N2C(=O)c3cccc4c([N+](=O)[O-])ccc(c34)C2=O)c1	-20%	0.6%	/	1%	?	/
CCc1ccc(CNC(=O)c2ccc3c(c2)N=C(C)c2cc(C)ccc2S3)cc1	/	2.3%	32	/	/	0.4
CC1(C)Oc2ccc(C(=O)N3CCOCC3)cc2N(CC(=O)N2CCOCC2)C1=O	1%[15.4 µM]	1.1%	25	12%	2.0	0.7
COc1ccc(S(=O)(=O)NCCc2nnc3ccc(SCC(=O)Nc4nc(C)cs4)nn23)cc1	29%	-17%	-2	2%	2.6	-0.8
CCOC(=O)C1CCN(C(=O)COC(=O)c2cc(-c3cccs3)nn2-c2ccccc2)CC1	7%[15.4 µM]	/	-12	-7%	/	0.5
Cc1cc(C)n2nc(CC(=O)NCc3ccccc3Cl)nc2n1	-7%[15.4 µM]	0.6%	2	14%	-3.3	0.4
O=C(NCc1ccccc1)c1ccc(CS(=O)Cc2ccc(Cl)cc2)o1 (configuration not stated)	-37%	-2.9%	-5	-7%	-2.0	-0.1
CCOc1ccccc1CNC(=O)C1CCN(S(=O)(=O)c2c(C)noc2/C=C/c2ccccc2F)CC1	/	?	18	/	/	-0.7
CCCn1nnnc1SCC(=O)N(C(C)C)C(C)C	9%	-3.5%	-17	-5%	3.8	-0.2
CCOc1ccc([N+](=O)[O-])cc1CNC1CCCCCCC1	1%	2.3%	-5	8%	0.7	-1.0
O=C(c1ccc2c(c1)OCO2)N1CCN(c2ccc(Cl)cc2)CC1	-31%[inhibitor]	1.0%	9	-5%	0.2	-0.4
Cc1cc(NC(=O)COC(=O)CCNS(=O)(=O)c2c(Cl)cccc2Cl)no1	-17%[15.4 µM]	/	-10	1%	-0.2	0.0
Cc1cc(C)c(-n2c(SCC(=O)N3CCOCC3)n[nH]c2=O)c(C)c1	-46%[inhibitor]	-2.7%	/	12%	-15	/
CCOC(=O)CCc1c(C)nc2cc(-c3ccc(F)cc3)[nH]n2c1=O	23%	25µM*	-9	-3%	1.4	-0.1
CC(C)Oc1ccc(C(=O)OCC(=O)NC2CCCCCC2)cc1	-22%	-0.4%	4	5%	/	-1.8
O=C(COC(=O)Cc1ccc(Cl)cc1)NCc1ccc2c(c1)OCO2	-1%	-1.8%	5	5%	/	1.4
COc1ccc(CCNC(=O)COC(=O)Cn2cnc3ccccc3c2=O)cc1	10%	0.4%	-1	-10%	0.3	-0.3
CCOC(=O)C1CCCN(CC(=O)Nc2cc(C)cc(C)c2)C1 (configuration not stated)	-5%[15.4 µM]	2.1%	4	-6%	-4.6	-1.1
COc1ccc(N2CCN(C(=O)CSc3nnc(COc4cccc5cccnc45)o3)CC2)cc1	-8%	-3.5%	-4	-10%	5.1	0.3
COc1ccccc1CNC(=O)c1ccc(CS(=O)(=O)c2ccc(C)cc2)o1	9%	-1.8%	-3	-17%	5.2	-0.8

An excerpt of these results, with values under each structure.
Values run as follows: gsp agonist, ClpP mod, TRPML1 blocker, gsp antag, Menin-MLL FL inh, TRPML1 agonist
- COc1ccc(S(=O)(=O)NCCc2nnc3ccc(SCC(=O)Nc4nc(C)cs4)nn23)cc1
  29%, -17%, -2, 2%, 2.6, -0.8
- CCOC(=O)C1CCN(C(=O)COC(=O)c2cc(-c3cccs3)nn2-c2ccccc2)CC1
  7%[15.4 µM], /, -12, -7%, /, 0.5
